gsp antagonist: gsp mutant antagonism. gsp-mutant cells, cAMP HTRF, 30 min; control for the full effect not named in the record. Potency, µM (series often up to 76.9 µM), for inactives: at the top dose activity change, negative = inhibition, actives largely listed as inhibitors. actives 0.4% (n = 340,000). AID 624288; active = falling curve of any shape with a large fitted effect; inconclusive = falling curve, mostly with a smaller effect; inactive = flat or rising curve; cell line not stated here;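 note: intracellular cAMP measured with PDE inhibitor Ro 20-1724 present during compound exposure; potency is the fitted concentration of half-maximal effect; % is set by controls: 0 for no effect and ±100 for the full control effect; nearly all actives have a fitted effect of over 65% in size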
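HTRF cAMP read-out (cAMP-d2 plus anti-cAMP antibody-K in lysis buffer, 30 min RT). Before lysis, cells are exposed to compounds with […] for 30 min at 37C in DPBS containing Ca/Mg, BSA and Tween 20.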
Sfp PPTase inh: blocks B. subtilis Sfp PPTase activity; Q9F4F7; Biochemical Sfp PPTase activity, qHTS; Potency, µM, for the others: max response, negative = inhibition, most hits filed as inhibitors; actives 3.5% (n = 310,000); active = well fitted inhibition curve with a large enough effect; inconclusive = small, poorly fitted or top-dose-only effect, or another doubt; inactive = no such curve, though single readings can be large or run the other way;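 note: the enzyme is Sfp with the accession as filed and its product quenches rhodamine fluorescence; potency is the fitted concentration of half-maximal effect; 0% = enzyme reaction without inhibitor and -100% = no enzyme wells; top concentration of the series not given in the record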
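Reaction rates are the 30-min fluorescence difference (ex 525, em 598 nm) in wells containing 15 nM Sfp, 5 uM rhodamine-CoA and 12.5 uM BHQ-2-YbbR at pH 7.6 with 10 mM MgCl2.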
Menin-MLL FL inh: menin-MLL binding inhibition, fluorescein peptide | Fluorescence polarization, fluorescein-MLL peptide displacement from menin | FP activity change, % at 61.4 µM | 290,000 tested, under 10 active; inconclusive = falling polarisation curve, or a change in total fluorescence; inactive = total fluorescence flat and polarisation flat or rising; no compound was filed as active; the % refers to the polarisation; negative = inhibition;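 note: % of control where 0% means no effect; inhibitors lower the polarisation; unlabelled MLL peptide was the positive control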
gsp agonist: activates gsp, the McCune-Albright syndrome mutation; actives 0.13% (n = 340,000); AID 624287; Potency, µM (top dose mostly 76.9 µM), inactives show top-dose activation (cAMP increase), most hits filed as activators; gsp mutant cells, cAMP HTRF, 30 min; control for the full effect not named in the record; active = well fitted activation curve with a large enough effect; inconclusive = small, poorly fitted or top-dose-only effect, or another doubt; inactive = no such curve, though single readings can be large or run the other way; cell line not stated here;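 note: phosphodiesterase inhibitor Ro 20-1724 added with compounds to block cAMP breakdown; potency is the fitted concentration of half-maximal effect; nearly all actives have a fitted effect of over 60% in size; about a fifth of the inactives were tested at one dose only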
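Cells in DMEM/10% FBS with G418 were pretreated with compounds in DMSO plus […] (300 uM stock) for 30 min at 37C. cAMP was measured by HTRF (cAMP-d2 plus anti-cAMP antibody-K) after 30 min at room temperature.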
TRPV1 PAM: enhances activation of the human vanilloid receptor TRPV1; potentiation, % at 8.33 µM; AID 540277; actives 0.02% (n = 320,000); TRPV1-expressing cells, Fluo-8 calcium influx, capsaicin EC20 potentiation; host cell line not named in the record; control for the full effect not named in the record; active means potentiation above 80%; inconclusive means 30% to 80%; inactive means below 30%; note: 0% is about no effect
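Cells expressing TRPV1 were dye-loaded with Fluo-8 and read kinetically: 10 s baseline, 3 min after compound (agonist portion), then 2 min after EC20 capsaicin (allosteric enhancer portion). Calcium-bound dye fluorescence at 480/520 nm.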
D2 PAM: positive allosteric modulators of human D2 dopamine receptor | actives 0.23% (n = 360,000) | potentiation, % (no concentration beside the values) | P14416 | DiscoveRx D2 beta-arrestin cells, luminescence, 90 min; 100% = 57 uM dopamine signal; active = potentiation of 50% or more; inconclusive = 30% to 50%; inactive = 30% or less;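 note: compound concentration not given in the record; tested on top of an EC20 dose of dopamine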
Target sequence (P14416 whole entry, looked up): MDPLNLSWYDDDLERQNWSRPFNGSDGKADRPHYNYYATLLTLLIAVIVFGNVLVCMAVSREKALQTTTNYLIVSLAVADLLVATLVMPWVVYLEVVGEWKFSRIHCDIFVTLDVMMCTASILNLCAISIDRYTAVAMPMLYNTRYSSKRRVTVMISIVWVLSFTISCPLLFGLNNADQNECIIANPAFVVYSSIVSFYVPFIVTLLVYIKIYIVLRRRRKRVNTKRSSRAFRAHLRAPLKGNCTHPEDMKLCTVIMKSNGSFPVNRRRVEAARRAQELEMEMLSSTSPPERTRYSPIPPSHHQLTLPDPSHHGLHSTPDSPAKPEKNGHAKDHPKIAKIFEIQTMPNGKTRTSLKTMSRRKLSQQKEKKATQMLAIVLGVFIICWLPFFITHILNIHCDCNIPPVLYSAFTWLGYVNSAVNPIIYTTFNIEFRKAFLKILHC
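PathHunter D2 cells, attached overnight at 37 deg C, received compound in DMSO plus dopamine at EC20 (50 nM final) for 90 min at 37 deg C. Beta-arrestin recruitment was read as luminescence after 1 h with detection reagent at ambient temperature.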
ClpP mod: qHTS Assay for Activators of ClpP; purified B. subtilis ClpP, FRET peptide cleavage, 20 min; Potency, µM (top dose mostly 57.5 µM), for the others: at the highest dose activity change, negative = active; actives 1.9% (n = 340,000); AID 651965, 2013; active = well fitted falling curve with a large enough effect; inconclusive = small, poorly fitted or top-dose-only effect; inactive = no such curve, though single readings can be large or run the other way; note: potency is the fitted concentration of half-maximal effect; the source files actives as falling curves though it sought activators and does not explain the sign; nearly all actives have a fitted effect of over 65% in size; many hits overshoot -100%
Target sequence (P80244 whole entry, looked up): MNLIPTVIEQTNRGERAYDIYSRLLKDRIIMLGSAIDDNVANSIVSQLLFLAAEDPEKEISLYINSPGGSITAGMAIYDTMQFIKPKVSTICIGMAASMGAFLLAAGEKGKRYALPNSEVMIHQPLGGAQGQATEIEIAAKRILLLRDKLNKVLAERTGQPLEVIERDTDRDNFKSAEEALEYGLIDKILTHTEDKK
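Purified B. subtilis ClpP, 10 microg/mL final in Tris/HCl pH8 with KCl, BSA, glycerol and Tween-20, cleaved an Abz/nitrotyrosine-quenched decapeptide. Fluorescence (ex 320, em 430) was read at 0 and 20 min at room temperature. Delta was normalized to 5.8 microM ADEP and DMSO/no-enzyme controls.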
Active calls of the source: *; ? = inconclusive; . = no result given; [ ] = dose if it differs, or a comment. The order is random; about 5.1% have a hit in one of these screens.

Every second line gives: D2 PAM	gsp agonist	Menin-MLL FL inh	TRPV1 PAM	ClpP mod	gsp antagonist	Sfp PPTase inh
- CCOC(=O)c1ccc(N=C2SC(C(=O)Nc3ccc(C(=O)O)cc3)CC(=O)N2Cc2cccs2)cc1 (stereo not given)
 : 5	-21%	-7.4	-1	.	?	-12%
- O=C(COC(=O)CSc1ccc([N+](=O)[O-])cc1)NCCCc1ccccc1
 : -3	1%	.	0	0.8%	-1%	-2%
- CC(Oc1ccc(F)cc1)C(=O)Nc1cccc(S(=O)(=O)N(C)c2ccccc2)c1 (stereo not given)
 : -8	-24%	.	.	0.5%	.	.
- CCOC(=O)COc1ccccc1C1Nc2ccccc2C(=O)N1c1cccc(Cl)c1 (stereo not given)
 : -11	9%	0.1	.	25µM*	-9%	1%
- COc1ccccc1N1CCN(C(=O)CCc2nnc3ccc(N4CCCC4)nn23)CC1
 : -2	?	.	-8	-1.6%	6%	10%
- N/C(=N\S(=O)(=O)c1ccc(Cl)cc1)N1CCOCC1
 : 0	-2%[15.4 µM]	4.2	-15	.	7%	14%
- CC(C)c1ccc(N2C(=O)[C@@H]3Cc4ccccc4CN3C2=O)cc1
 : -28	-22%	2.9	-15	0.7%	21%	-4%
- Cc1ccc(S(=O)(=O)Nc2cccc(C(=O)N3CCOCC3)c2)c(C)c1NS(C)(=O)=O
 : -4	15%	-2.8	-22	1.5%	0%	16%
- O=C(NCc1ccco1)c1ccccc1
 : 4	-3%[15.4 µM]	-2.5	23	-3.8%	6%	13%
- CCn1nc(C(=O)Nc2ccc(S(=O)(=O)Nc3nccs3)cc2)c2ccccc2c1=O
 : -3	4%	?	10	-1.4%	-11%	-14%
- Cc1cc(C)nc(Oc2ccc(Br)cc2Br)n1
 : 2	-22%[15.4 µM]	-2.1	-2	.	-1%	3%
- CCC1CCCCN1CCCNC(=O)CCNC(=O)Cn1cnc2ccccc2c1=O (stereo not given)
 : -5	-20%[15.4 µM]	0.0	1	.	7%	-6%
- O=C(c1ccc2snnc2c1)N1CCN(c2ccccn2)CC1
 : 5	-14%	-3.5	-9	-2.1%	4%	6%
- Cc1ccnc(NCc2ccc(Cl)cc2)c1
 : -7	-33%[inhibitor]	0.8	?	.	14%	7%
- O=C(CCSc1nnc2ccc3ccccc3n12)Nc1ccc(F)cc1
 : 1	?	1.7	0	-23%	27%	-2%
- CCOC(=O)C1=c2/c(=C/c3ccccc3OC)c(N)c(C#N)n2C(=O)C(c2ccccc2OC)S1 (stereo not given)
 : .	.	1.2	-2	.	.	16%
- CCOC(=O)c1c(Nc2ccccc2N)cc(C)nc1C
 : 9	?	-6.0	-2	-1.0%	4%	7%
- O=C(c1cccs1)N1CCN(Cc2ccccc2[N+](=O)[O-])CC1
 : -18	-5%	2.3	-6	-3.1%	4%	-21%
- O=C1C=C(c2ccc(F)cc2OCc2ccccc2)C[C@@H](c2ccc(Cl)cc2)C1
 : -39	.	.	-21	0.2%	0%	.
- CCOC(=O)c1c(C)[nH]c(C)c1C(=O)COC(=O)c1cccs1
 : 10	-15%	.	.	0.8%	-23%	.
- Cc1ccc(-c2nc(CS(=O)CC(=O)N3CCN(c4ncccn4)CC3)c(C)o2)cc1 (stereo not given)
 : -10	-16%	4.1	.	3.8%	-8%	2%
- C[C@@H]1CN([C@@H](C)CO)C(=O)CCCn2nncc2CO[C@H]1CN(C)S(=O)(=O)c1cn(C)cn1
 : -1	-33%[inhibitor]	.	.	1.0%	.	.
- Cc1ccccc1NC(=O)CSc1nnc2ccc(-c3ccccn3)nn12
 : -33	1%[15.4 µM]	.	27	0.6%	0%	.
- O=C(N/N=C/c1ccc(Cl)cc1Cl)c1ccncc1
 : 5	5%	4.2	-25	0.1%	-2%	?
- CCOC(=O)NC1C=CS(=O)(=O)C1 (stereo not given)
 : 7	-4%	0.9	-1	-3.3%	-11%	11%
- CCOC(=O)c1c(CSC(=N)N)n(-c2ccc(Br)cc2)c2cc(Br)c(OC(C)=O)cc12
 : -18	-8%	2.2	2	?	11%	?
- O=C1CC(c2ccccc2)C(=O)N2C(=O)CC(c3ccccc3)C(=O)N12 (stereo not given)
 : -5	11%	.	.	.	-1%	.
- O=C(CSc1ccc(-c2nc3ccccc3[nH]2)cn1)Nc1ccc(S(=O)(=O)N2CCCC2)cc1
 : ?	-17%	-1.4	-26	20µM*	-5%	4%
- O=C(/C=C/c1ccco1)N/C(=C\c1ccccc1)C(=O)NCCc1nc2ccccc2[nH]1
 : -28	-4%	9.1	13	-3.9%	-3%	-9%
- Cn1c(=O)c2c(nc(Oc3ccc4c(c3)OCO4)n2Cc2ccc(Cl)cc2)n(C)c1=O
 : 4	14%	-0.7	5	-2.4%	16%	19%
- C=CCN1C(=O)/C(=C\c2ccc(Cl)cc2)N=C1SCC(=O)NC1CCCCC1
 : -16	-12%	2.3	-3	-0.9%	4%	12%
- CCS(=O)(=O)Nc1ccc(-c2cc(-c3ccccc3)c3cc(C)ccc3n2)cc1
 : 3	1%	-4.5	24	18µM*	0%	-16%
- Cc1ccc(C(=O)Nc2scc(-c3ccccc3)c2C(=O)O)o1
 : 2	5%[15.4 µM]	-4.6	-1	.	-22%	19%
- CC(=O)Nc1nonc1NC(=O)c1ccc(C(C)(C)C)cc1
 : 5	-40%[inhibitor]	-0.3	-12	-1.4%	-19%	4%
- CC1(C)Cc2c(cnn2-c2ccc(F)cc2)C(NC(=O)c2ccco2)C1 (stereo not given)
 : -7	3%	.	-6	1.9%	-7%	8%
- CC(C)n1c(-c2ccc(C(C)(C)C)cc2)n[nH]c1=S
 : -1	27%	1.2	-19	-2.5%	?	6%
- Cc1ccc(C(=O)C2CCN(CC(=O)NCc3ccc(F)cc3)CC2)cc1
 : -35	?	.	1	1.8%	-3%	15%
- COc1ccc(CN2C(=O)c3cccnc3C2=O)cc1S(=O)(=O)NC1CCCCC1C (stereo not given)
 : -2	?	3.4	-14	0.1%	9%	10%
- CCCNC(=O)c1c(Cl)cnn1-c1ccc(C)cc1
 : 4	14%	-1.9	3	.	-3%	11%
- CCOC(=O)c1sc(/N=C/C2=C(O)CC(C)(C)CC2=O)c(C(=O)OCC)c1C
 : -3	-26%	-5.7	-9	-1.5%	11%	?
- CC(=O)OCC[C@H](NS(=O)(=O)OCC(Cl)(Cl)Cl)c1ccccc1
 : -9	.	4.6	-11	0.7%	11%	19%
- Cc1ccc2oc(=O)c3cnn(CC(=O)NCCC(C)C)c3c2c1
 : -8	-121%[inhibitor]	1.1	-12	-0.5%	3%	14%
- CC(=O)Nc1ccc(NC(=O)C(C)NC(C)c2cccc3ccccc23)cc1 (stereo not given)
 : -14	-2%	-3.8	13	.	0%	17%
- Cc1ccc(OCC(=O)N(Cc2ccc(N(C)C)cc2)C2CCS(=O)(=O)C2)cc1C (stereo not given)
 : 2	22%	-0.3	-5	.	-17%	2%
- COc1ccc(NC(=O)CSc2nc3[nH]c(=O)cc(O)c3s2)c(OC)c1
 : -13	-5%	.	-6	-1.2%	-4%	.
- COCCNc1nc(N)c([N+](=O)[O-])c(NC2CCCCC2)n1
 : -14	?	1.2	4	-0.7%	-6%	4%
- O=C(NCCCN1CCOCC1)c1ccc(Cl)c(S(=O)(=O)N2CCCCCC2)c1
 : -15	-34%[inhibitor]	0.5	-6	0.2%	10%	15%
- NC1=NC[C@@H](Cc2ccc(O)cc2)N1CCC12CC3CC(CC(C3)C1)C2
 : -3	.	.	.	1.4%	-3%	.
- C/C(=N/NS(C)(=O)=O)c1ccc2ccccc2c1
 : -14	-26%	1.4	4	2.3%	-3%	20%
- COc1ccc(OCCNC(=O)c2ccc(C)cc2)cc1
 : -4	-2%	-2.1	-23	.	1%	3%
- Cc1cnc(C(=O)OCC(=O)N2CCc3ccccc32)cn1
 : -5	5%	1.6	8	-1.6%	-6%	9%
- CCc1sc(C(=O)Nc2cc(S(=O)(=O)N3CCOCC3)ccc2OC)cc1C
 : 7	-5%	.	1	-2.2%	-38%	.
- O=C(NC1CC1)c1c(O)c2ccccc2[nH]c1=O
 : -8	-2%	-3.9	3	-4.8%	11%	-4%
- O=C(CNC(=S)N(Cc1ccccc1)Cc1cccs1)NCc1ccc(F)cc1
 : -5	4%[15.4 µM]	5.1	4	.	-26%	5%
- CCN(CC(=O)Nc1cc(Cl)ccc1C)C(=O)Cc1ccsc1
 : -5	1%	.	-1	0.2%	2%	.
- Cc1cccc(NC(=O)NC2(C(=O)NCc3ccco3)CCCCC2)c1
 : -7	20%	.	5	.	0%	9%
- Cc1cc(=O)n(CCCc2ccccc2)[nH]1
 : -14	?	.	-6	0.7%	-1%	.
- COc1cc(/C=C(\C#N)C(=O)Nc2cccc(C(=O)O)c2)ccc1OCc1ccc(Cl)cc1
 : -5	-42%[inhibitor]	-7.7	-14	0.5%	-45%	-3%
- Cc1c(Cl)cccc1NC(=O)[C@@H](NC(=O)c1ccccc1Cl)C(C)C
 : -11	-14%	6.2	-35	0.3%	6%	-13%
- CCNS(=O)(=O)c1ccc(NC(=O)Cn2cc([N+](=O)[O-])cn2)cc1
 : -5	-5%[15.4 µM]	2.3	5	.	10%	7%
- CCC(C(=O)NC1CCN(C)CC1)c1ccccc1 (stereo not given)
 : 2	-21%	0.2	28	3.2%	11%	3%

Assay outcomes: PubChem BioAssay, National Center for Advancing Translational Sciences (NCATS)
